# Compound activity as filed in PubChem BioAssay.
# LANA-H2A inh – blockers of LANA interaction with H2A/H2B – biochemical, FP readout, HTS, primary screen. 320,000 tested, 0.6% active. Protein LANA1 (Human herpesvirus 8 type P (isolate GK18)), Q9QR71. cell-free LANA-H2A/H2B peptide, fluorescence polarization. inhibition, % (concentration not given with the values); in the data active = inhibition mostly above about 10%, no sharp cut-off; inactive = mostly below about 6.7%;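 also: stock transfer was 7.5 nL into about 10 µL; 0% = median of vehicle wells and 100% = median of positive control wells; one replicate is shown; the record names a cut of 25% in any replicate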
# UCH37 DUB inh – inhibitors of human UCH37 deubiquitinase, primary screen, biochemical, Ub-AMC cleavage, fluorescence; purified proteasome/UCH37; Ubiquitin carboxyl-terminal hydrolase isozyme L5 (Homo sapiens), Q9Y5K5; 330,000 tested, 0.33% active; inhibition, % (no concentration beside the values); AID 588478, 2011;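 active = mean of two replicates above 20%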;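 also: 0% = compound-free wells with enzyme and 100% = wells lacking proteasome; stock transfer was 100 nL into about 20 µL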
# Target sequence (Q9Y5K5 whole entry, looked up): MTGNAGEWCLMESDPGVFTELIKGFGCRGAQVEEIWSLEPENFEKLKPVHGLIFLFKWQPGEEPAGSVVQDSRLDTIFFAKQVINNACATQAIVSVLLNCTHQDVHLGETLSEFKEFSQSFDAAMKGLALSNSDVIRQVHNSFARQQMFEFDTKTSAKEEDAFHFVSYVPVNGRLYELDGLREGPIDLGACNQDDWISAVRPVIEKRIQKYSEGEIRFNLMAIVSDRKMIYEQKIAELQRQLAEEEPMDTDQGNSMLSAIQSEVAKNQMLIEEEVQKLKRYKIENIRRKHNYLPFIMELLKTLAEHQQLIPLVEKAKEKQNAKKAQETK
#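 Reagent: Ub-AMC substrate; assay system: Proteasome-associated human UCH37 deubiquitinase; controls: no-proteasome and no-compound wells; read-out: % inhibition of Ub-AMC cleavage fluorescence; timing: 30 min preincubation with enzyme, 25 min cleavage at room temperature; signal: AMC fluorescence from Ub-AMC cleavage, excitation 355 nm, emission 460 nm; buffer or medium: Tris-HCl pH 7.4 plus ovalbumin, ATP-MgCl2, DTT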
# HNF4A DNA FP – change in binding of human HNF4A to DNA, primary screen, biochemical, fluorescence polarization, FITC-DNA | Hepatocyte nuclear factor 4-alpha (Homo sapiens), P41235 | 1 h | activity change, % at 10 µM | 360,000 tested, 0.3% active; in the data active = activity change above about 30%, passing the limit was not always enough;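 also: controls were the assay level and a saturating level of protein; the project sought stronger binding though the title names inhibitors; some compounds called inactive have numbers as strong as hits; positive values seem to mean higher polarization but the record does not say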
# B2AR ag – beta2AR agonists driving receptor internalization, primary screen, cell-based, FAP fluorogen, flow cytometry | Beta-2 adrenergic receptor (Homo sapiens), P07550 | Am2.2-beta2AR cells; reference of the scale not given here | response, % (test concentration not listed) | 340,000 tested, 0.43% active | AID 504454, 2011;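 active = response above a set limit, near 3 SD of response in nonfluorescent compounds, cut at about 42% in these data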;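 also: stock transfer was 100 nL into about 11 µL; a reference agonist was the positive control; negative values mostly stem from fluorescent compounds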
# Target sequence (P07550 whole entry, looked up): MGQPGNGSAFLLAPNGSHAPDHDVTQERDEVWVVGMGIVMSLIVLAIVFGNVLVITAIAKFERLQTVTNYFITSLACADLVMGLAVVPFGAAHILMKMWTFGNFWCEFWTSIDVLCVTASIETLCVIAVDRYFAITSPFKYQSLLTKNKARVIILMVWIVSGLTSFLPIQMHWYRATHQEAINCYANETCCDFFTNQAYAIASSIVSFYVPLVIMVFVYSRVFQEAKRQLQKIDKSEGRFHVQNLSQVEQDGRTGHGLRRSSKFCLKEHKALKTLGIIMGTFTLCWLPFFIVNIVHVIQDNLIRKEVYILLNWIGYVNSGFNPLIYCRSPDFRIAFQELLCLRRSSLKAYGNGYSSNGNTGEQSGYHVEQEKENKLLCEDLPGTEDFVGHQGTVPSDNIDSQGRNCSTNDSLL
# Ecoli growth – E. coli growth inhibition, primary screen, OD600; OD600 absorbance (no concentration beside the values); Escherichia coli growth, 23 h; hits give low values; 330,000 tested, 0.21% active;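 active = OD600 absorbance below the run mean of sample wells minus 3.6 SD, in any replicate, cut at about 0.56 in these data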;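 also: stock transfer was 300 nL into about 60 µL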
# ALR inh – inhibitors of human ALR sulfhydryl oxidase, primary screen, biochemical, H2O2 detection, HRP-luminol luminescence, single point. 290,000 tested, 3.8% active. AID 485317, 2010. purified ALR, DTT oxidation. FAD-linked sulfhydryl oxidase ALR (Homo sapiens), P55789. inhibition, % (no concentration beside the values);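 active = mean and each replicate at 75% or more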;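 also: stock transfer was 7.5 nL into about 7.5 µL; 0% = neutral wells and 100% = wells with inactivated enzyme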
# FGF22 binding – binders of human FGF22 protein, primary screen, FGF22 synaptogenesis inhibitor project, biophysical, thermal shift, single point | Fibroblast growth factor 22 (Homo sapiens), Q9HCT0 | recombinant FGF22 thermal shift, SYPRO orange fluorescence; percent of sucrose octasulfate shift, DMSO zero | calls only at 9.99 µM | 340,000 tested, 1.5% active;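 active = melting point raised past a set limit in the mean and every replicate; three in four hits are not shown here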
# Target sequence (Q9HCT0 whole entry, looked up): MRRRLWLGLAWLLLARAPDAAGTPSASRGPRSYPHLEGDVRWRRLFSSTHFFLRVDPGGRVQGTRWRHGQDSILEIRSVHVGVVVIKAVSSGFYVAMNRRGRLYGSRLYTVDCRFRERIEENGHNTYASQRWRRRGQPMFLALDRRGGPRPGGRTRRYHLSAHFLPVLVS
# An asterisk follows results filed as active; i = inactive; x = not tested or not shown; + = active, no number; & = joins results of further samples. This is a subset, so the mix of outcomes need not match the whole.
no.	compound	LANA-H2A inh	UCH37 DUB inh	HNF4A DNA FP	B2AR ag	Ecoli growth	ALR inh	FGF22 binding
1	COc1cc(C(=O)Nc2ccc(S(=O)(=O)N(C)c3ccccc3)cc2)cc(OC)c1OC	-1.4	0.0	-0.6	25	0.67	-6	i
2	O=C(NC1CCN(Cc2ccccc2)CC1)c1cc(S(=O)(=O)Nc2ccc(F)cc2)ccc1Cl	x	-0.5	3.0	-1	0.67	x	i
3	CC1(C)SC2c3ccccc3C(=O)N2[C@@H]1C(=O)NC1CCCC1 (some centres undefined)	-1.9	-1.8	-0.6	-3	0.68	24	i
4	C=CCN(CC=C)C(=O)CN1C(=O)NC(c2ccccc2)(c2ccccc2)C1=O	-1.2	1.7	0.1	-2	0.7	-11	i
5	COc1ccc(CCn2c(-c3ccc(F)cc3)nc3c(c(=O)c4ccccc4n3C)c2=O)cc1OC	-3.1	5.6	1.2	-29	0.66	-2	i
6	CCOC(=O)C1=C(C)NC(=O)NC1c1ccc(OCC(=O)N2CCCCC2)cc1 (centres undefined)	1.9	0.8	0.8	-9	0.72	-10	x
7	C[C@H](NC(=O)Nc1ccccc1F)C(=O)O	0.4	2.0	2.9	9	0.69	-7	x
8	N#CCCn1cc(/C=C2\NC(=S)N(c3ccccc3)C2=O)c(-c2ccc(F)cc2)n1	-0.4	9.0	7.8	8	0.67	-1	i
9	CCn1c(SCC(=O)Nc2nncs2)nnc1C(C)NC(=O)c1ccccc1Br (centres undefined)	7.0	3.4	-1.2	21	0.68	14	i
10	Cc1cccc(CCNC(=O)CCc2nnc(CCc3ccccc3)o2)n1	-3.1	0.3	2.8	3	0.66	-34	i
11	Cc1sc2cc3c(c(C(=O)c4ccccc4)[n+]2c1C)-c1cccc2cccc-3c12	5.9	6.8	x	x	0.56	-47	i
12	COc1cccc2cc(C(C)N(CCCN3CCOCC3)C(=S)Nc3c(C)cccc3C)oc12 (centres undefined)	5.3	6.9	5.1	10	0.71	1	i
13	O=C1CC(c2cc3c(cc2Br)OCO3)C2=C(CCCC2=O)N1 (centres undefined)	x	-0.9	0.8	-5	0.71	x	x
14	O=C(N/N=C/c1ccc(O)c([N+](=O)[O-])c1)c1ccncc1	-2.6	x	-2.7	-13	x	-8	i
15	Cc1ccc(/C=C/C(=O)O)cc1S(=O)(=O)N(CCO)CCO	-6.1	x	2.0	-3	x	-1	x
16	CC(C)Cn1c(N)c(C(=O)CSc2ncn[nH]2)c(=O)n(C)c1=O	x	-0.1	-0.1	8	0.68	x	i
17	O=[N+]([O-])c1cccc(CN2CCCCCC2)c1	8.0	1.0	3.1	-8	0.64	-7	i
18	Cc1oc(-c2cccc(Cl)c2)nc1CS(=O)(=O)CC(=O)NCCN1CCOCC1	-1.7	0.9	1.7	-1	0.68	95*	i
19	O=C(NC(Cc1ccccc1)C(=O)O)/C(=C/c1ccc(Br)cc1)NC(=O)c1ccc(Br)o1 (centres undefined)	-2.6	3.8	1.0	-2	0.64	1	i
20	CCN1C[C@@H]2[C@@H]3C(=O)N(Cc4ccccc4)C(=O)[C@@H]3[C@](C)(C1=O)N2C(=O)c1ccc(Br)cc1	x	2.8	0.9	-3	x	x	i
21	O=c1cc(-c2ccccc2)[nH]c2ccccc12	-2.2	-1.5	-3.5	27	0.65	x	x
22	CC1CCN(S(=O)(=O)c2ccc(C(=O)N3CCOCC3)cc2)CC1	6.3	0.4	0.3	-9	0.73	-4	i
23	CCOc1cccc(/C=C(/C#N)c2nc3ccccc3[nH]2)c1OCC(=O)O	-2.1	3.4	-0.9	-8	0.7	98*	i
24	Nc1cc(=O)[nH]c(SCC(=O)Nc2nnc(-c3ccccc3)s2)n1	1.9	5.2	-0.3	-3	0.68	18	i
25	CCOc1ccc2oc(=O)cc(CN3CCN(C(=O)c4ccco4)CC3)c2c1	4.4	-14	2.7	-6	0.68	-2	i
26	CCC1(CC)SC(N)=NC1=O	x	-0.2	-1.4	3	0.62	x	i
27	O=C(O)Cc1csc(-c2ccccc2)n1	3.1	0.5	5.1	1	0.65	0	i
28	CCOC(=O)c1c(C)c(C(=O)NCc2cccnc2)c(C)n1CC	-3.0	3.9	4.0	-2	0.73	-3	x
29	CCN(CC)CCN(C(=O)/C=C/c1cccs1)c1nc2ccc(OC)cc2s1	x	0.5	2.8	-5	0.69	x	i
30	C=CS(=O)(=O)c1ccc(Oc2ccc(S(=O)(=O)C=C)cc2)cc1	0.7	4.3	-2.9	42*	0.69	24	i
31	CSCCC(NC(=O)c1ccco1)C(=O)N1CC=C(c2ccccc2)CC1 (centres undefined)	-3.3	1.2	1.6	-6	0.72	0	i
32	O=C(CC1NCCN(Cc2ccccc2)C1=O)Nc1ccc(Cl)cc1 (centres undefined)	3.4	3.3	1.6	-2	0.69	-7	i
33	CC(=O)N1N=C(c2ccco2)CC1c1ccc(Cl)o1 (centres undefined)	1.0	5.9	-0.5	-7	0.7	x	i
34	CCOC(=O)c1[nH]c(C)c(C(=O)N2CCN(c3ccccc3OC)CC2)c1C	-3.8	5.7	3.8	-9	0.71	39	i
35	CC12CCC(C(=O)N(CC3CO3)C1=O)C2(C)C (centres undefined)	2.2	1.4	-1.3	-16	0.68	4	i
36	Cc1ccc(CN(C)C(=O)c2ccc(S(=O)(=O)N(C)c3ccccc3)cc2)o1	x	5.2	-0.7	0	0.66	x	i
37	COC(=O)C(CSCc1ccccc1)NC(=O)CSc1nc(N)cc(=O)[nH]1 (centres undefined)	3.1	0.6	1.6	7	0.65	-2	x
38	Cc1nnc(SCCN2C(=O)c3ccccc3C2=O)nc1C	1.0	2.0	-2.5	-5	0.69	-5	x
39	Cc1ccc(NC(=O)CSc2ccc(-c3cccnc3)nn2)c(C)c1	-0.7	0.9	-0.5	12	0.67	-12	i
40	COc1cc(/C=C/C(=O)OCC(=O)Nc2sc3c(c2C#N)CCC(C)C3)ccc1OCC#N (centres undefined)	-4.2	-3.2	2.3	-8	0.75	-1	i
41	Cc1nn(C)c(C)c1CN(C)C(=O)c1cc2nc(-c3ccco3)cc(C(F)(F)F)n2n1	2.9	-15	-2.2	-16	0.7	-1	x
42	COc1ccc(CNCC(O)COc2ccc(C)cc2[N+](=O)[O-])cc1 (centres undefined)	-3.3	1.6	0.9	-4	0.61	-5	i
43	CN(C)c1nc(NCc2ccccc2)nc(SCC(=O)Nc2ccc(Cl)c(Cl)c2)n1	3.6	0.8	-3.1	0	0.79	2	x
44	CC(NC(=O)CSc1nc2ccccc2c(=O)n1CCCO)c1ccccc1 (centres undefined)	-6.2	5.2	-0.1	2	0.68	-3	x
45	O=[N+]([O-])c1ccc(NC(=S)N/C(=N/CS(=O)(=O)c2ccccc2)c2ccccc2)cc1	0.5	x	3.5	3	x	x	x
46	C[C@@]12C(=O)Nc3ccc(Cl)cc3C(=O)N1[C@H]1c3cc(Br)ccc3OC[C@@H]1[C@@H]2c1ccccc1	6.7	4.3	1.7	5	x	0	i
47	CC(=O)c1ccc(NC(=O)Nc2cccc3ccccc23)cc1	-0.2	-2.9	3.7	0	0.73	-18	i
48	O=Cc1cc(N=Nc2cccc(C(=O)O)c2)ccc1O	2.6	17	-7.9	4	0.71	1	+

# Sorted by SMILES length (rising): part of the list above
no.	compound	LANA-H2A inh	UCH37 DUB inh	HNF4A DNA FP	B2AR ag	Ecoli growth	ALR inh	FGF22 binding
47	CC(=O)c1ccc(NC(=O)Nc2cccc3ccccc23)cc1	-0.2	-2.9	3.7	0	0.73	-18	i
41	Cc1nn(C)c(C)c1CN(C)C(=O)c1cc2nc(-c3ccco3)cc(C(F)(F)F)n2n1	2.9	-15	-2.2	-16	0.7	-1	x
45	O=[N+]([O-])c1ccc(NC(=S)N/C(=N/CS(=O)(=O)c2ccccc2)c2ccccc2)cc1	0.5	x	3.5	3	x	x	x

# Next entries:
no.	compound	LANA-H2A inh	UCH37 DUB inh	HNF4A DNA FP	B2AR ag	Ecoli growth	ALR inh	FGF22 binding
49	COc1ccc(C(=O)NC(=S)N2CCC(C)CC2)cc1Br	1.7	1.3	2.4	-2	0.71	10	i
50	O=C1CCc2cc(S(=O)(=O)N3CCN(c4ccccc4F)CC3)ccc2N1	1.1	0.4	5.9	5	0.69	0	x
51	CCOc1ccc(C(=O)NCC(=O)NCC(c2ccccc2OC)N2CCCC2)cc1 (centres undefined)	-1.1	1.7	3.3	-3	0.69	1	i
52	CCCCCCCC(=O)OCC(O)CO (centres undefined)	1.1	-0.3	1.5	-8	x	x	i
53	NCc1ccc(S(N)(=O)=O)cc1	1.7	3.4&0.8	2.4&-1.7	8&5	0.61&0.71	7	i
54	O=C(NNC(=O)c1ccccc1-n1cccc1)c1ccc(F)cc1	1.3	x	1.6	4	x	-4	i
55	CCCCN(CCCNC(=O)c1ccc(CS(=O)(=O)c2c(Cl)cccc2Cl)o1)Cc1ccccc1	-0.5	2.1	-4.8	0	0.69	0	i
56	CC(=O)c1c(C)[nH]c(C(=O)OCC(=O)Nc2cc(C(F)(F)F)ccc2N2CCOCC2)c1C	-12	0.3	-1.6	-3	0.74	-3	x
57	Cc1cc(C)nc(NC(=O)CSc2nc3ccccc3o2)n1	-0.9	4.5	-5.3	-5	0.71	45	x
58	CCN(CC)C(=O)CSc1nnc(-c2ccccn2)n1Cc1ccccc1	0.2	1.3	-1.4	-19	0.66	-2	i
59	O=C(NCC(=O)N(c1ccccc1F)C(C(=O)NC1CCCC1)c1cccnc1)c1ccco1 (centres undefined)	-6.1	0.5	-1.9	2	0.64	10	i
60	O=C(Oc1ccc(-c2ccccc2)cc1)c1ccco1	x	4.1	-3.8	-7	0.68	x	i
61	CNC(=O)c1sc(-c2cccs2)nc1C	-1.1	-60	5.9	3	0.72	-11	i
62	O=C(c1cn(-c2ccccc2)nc1-c1cccnc1)N1CCCCC1	0.9	2.3	-11	-8	0.63	-6	x
63	COc1ccc(NC(=O)NCCC2=CCCCC2)cc1	1.5	4.3	1.7	-5	0.72	-8	i
64	O=C(COc1ccc(Cl)cc1)NCc1nnc(SCC(=O)c2ccccc2)o1	2.8	0.1	4.4	-3	0.79	0	x

# 3 entries from above, sorted by their value in ALR inh, smallest number first:
No. | SMILES | ALR inh
61 | CNC(=O)c1sc(-c2cccs2)nc1C | -11
63 | COc1ccc(NC(=O)NCCC2=CCCCC2)cc1 | -8
59 | O=C(NCC(=O)N(c1ccccc1F)C(C(=O)NC1CCCC1)c1cccnc1)c1ccco1 (centres undefined) | 10

# Additional structures follow.
no.	compound	LANA-H2A inh	UCH37 DUB inh	HNF4A DNA FP	B2AR ag	Ecoli growth	ALR inh	FGF22 binding
65	O=C(O)C1Cc2ccccc2CN1S(=O)(=O)c1ccccc1 (centres undefined)	-8.0	8.1	-2.2	5	0.72	-2	i
66	CCOC(=O)[C@H]1[C@H]2COc3cc(OC)ccc3[C@@H]2N2C(=O)c3c(C)cc(C)cc3NC(=O)[C@@]12C	-10	-0.8	-0.8	5	x	-3	i
67	Cc1ccc2c(c1)C1(C)C(C(C)(C)N2C=O)C1(Cl)Cl (centres undefined)	0.4	2.0	3.5	8	0.68	x	i
68	CCCCN(C(=O)Cc1coc2cc(C)c(C)cc12)c1c(N)n(Cc2ccccc2)c(=O)[nH]c1=O	1.1	3.0	1.2	-6	0.68	-3	i
69	O=C(CCNc1n[nH]c(=O)[nH]c1=O)N1CCCCC1	-5.1	-0.1	5.2	-2	0.7	-15	x
70	O=C(CC(=O)c1ccccc1)c1ccccc1	x	3.3	3.2	1	0.68	x	i
71	COc1ccc(-c2cc(C(=O)NCc3cccs3)no2)cc1	3.3	-0.6	-0.2	-10	0.72	x	i
